HSV augment: increases HSV replication in cells. 220,000 compounds, 0.005% hits. HSV replication augmentation in cells, fold increase. maximum fold increase;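 active = peak rise of 1.5-fold or more in the series; tested in PC3 cells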;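 also: first round at 10 µM; read as green reporter fluorescence; hits show the peak of a series up to 25 µM; 1 = signal of infected wells without compound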
RGS16-Gao HTS: modulates binding between human RGS16 and Galphao | bead-based flow cytometry RGS16-Galphao binding, fluorescence; actives lie on both sides | AID 1441 | binding response (% of control), % at 10 µM | 220,000 compounds, 0.38% hits;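 active = below 25% or above 175%, edge rows of some plates excepted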;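 also: Galphao activated by GDP with aluminum fluoride before binding; 100% = wells without compound and 0% = beads without RGS; some results beyond the cut were filed as inactive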
Target sequence (O15492 whole entry, looked up): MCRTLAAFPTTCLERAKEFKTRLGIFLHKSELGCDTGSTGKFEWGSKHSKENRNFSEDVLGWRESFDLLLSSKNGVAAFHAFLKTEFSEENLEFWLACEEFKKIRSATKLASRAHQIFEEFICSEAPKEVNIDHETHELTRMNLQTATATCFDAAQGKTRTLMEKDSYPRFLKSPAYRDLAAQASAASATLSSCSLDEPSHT
Target sequence (P09471 whole entry, looked up): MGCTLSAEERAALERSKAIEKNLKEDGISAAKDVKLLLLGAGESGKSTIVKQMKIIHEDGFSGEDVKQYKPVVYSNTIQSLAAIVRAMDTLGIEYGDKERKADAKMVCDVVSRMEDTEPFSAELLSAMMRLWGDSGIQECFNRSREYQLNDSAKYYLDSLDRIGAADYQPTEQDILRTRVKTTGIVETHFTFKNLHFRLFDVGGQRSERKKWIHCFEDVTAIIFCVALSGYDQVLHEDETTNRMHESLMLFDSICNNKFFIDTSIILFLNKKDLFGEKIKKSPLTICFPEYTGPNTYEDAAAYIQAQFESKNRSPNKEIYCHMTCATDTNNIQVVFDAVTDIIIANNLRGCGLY
INS promoter inh: TRM-6 insulin promoter activity inhibition; AID 1273; inhibition, % at 2 µM; TRM-6 cells (human fetal islet line), insulin promoter-eGFP reporter, imaging; reporter expression induced with tamoxifen; 130,000 compounds, 0.9% hits;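 active = inhibition above the mean plus 3 SD, with well images judged a real hit on visual review, cut at about 60% in these data, passing the limit was not always enough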
GALR2 ag: activates the human galanin receptor 2. O43603. GALR2-expressing cells, agonist activation read-out. activation, %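 (tested at 5 µM)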. 140,000 compounds, 0.48% hits. AID 803;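 active = above mean plus 3 SD of all compounds, about 5% in these data, not always enough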;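 also: 0% = vehicle buffer wells and 100% = reference agonist at full effect; tested in CHO reporter cells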
Target sequence (O43603 whole entry, looked up): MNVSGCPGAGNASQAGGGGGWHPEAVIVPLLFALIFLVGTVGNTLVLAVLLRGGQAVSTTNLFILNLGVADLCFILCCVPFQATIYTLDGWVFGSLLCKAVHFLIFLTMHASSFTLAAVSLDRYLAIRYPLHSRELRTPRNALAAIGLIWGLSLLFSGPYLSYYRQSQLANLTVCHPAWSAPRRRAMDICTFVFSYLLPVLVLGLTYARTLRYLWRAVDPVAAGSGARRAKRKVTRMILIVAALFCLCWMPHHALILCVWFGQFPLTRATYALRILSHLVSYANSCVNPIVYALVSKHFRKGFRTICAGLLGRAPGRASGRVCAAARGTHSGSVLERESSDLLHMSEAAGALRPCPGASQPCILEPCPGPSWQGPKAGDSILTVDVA
PKD1 inh: inhibitors of human PKD1 kinase. PKD1 kinase fluorescence polarization assay. inhibition, %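 (about 10 µM by stock and volumes)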. 200,000 compounds, 0.056% hits. AID 797;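 active = inhibition of 50% or more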;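 also: controls were vehicle for no effect and a reference inhibitor for full effect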
INS promoter inh cell count: second read-out of INS promoter inh, no call of its own (marks repeat the call); normalized cell count, %; measured here: cell count, toxicity; reference of the scale not given here;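 cells exposed to compound for 48 h; stained nuclei by imaging scaled within each plate; lower means fewer cells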
HSV augment primary fold: also measured in HSV augment; calls as there; fold increase; compound at 10 µM; measured here: primary screen fold increase 10 uM; tested in PC3 cells;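 GFP signal in the first replicate; 1 = infected wells without compound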
* marks the source's active call; other numbers are inactive results; i = inactive; / = no result given.

entry | molecule | HSV augment | HSV augment primary fold | RGS16-Gao HTS | INS promoter inh | INS promoter inh cell count | GALR2 ag | PKD1 inh
1 | CCCC(=O)OCCNC(=O)c1cc2ccccc2oc1=O | i | 1.1 | 103 | / | / | -0.4 | -5
2 | CCCCC1C2C(=O)N(c3ccccc3)C(=O)C2ON1c1ccccc1 (centres undefined) | i | 1 | 103 | / | / | / | /
3 | Cc1ccccc1C(=O)NCCCCc1ccccc1 | i | 0.98 | 96 | -29 | 88 | -1.5 | 1
4 | COc1cccc(C2(CSc3nnc(-c4cc(OC)c(OC)c(OC)c4)o3)OCCO2)c1 | / | / | 103 | / | / | -1.9 | -12
5 | CC(C)N=C(NC#N)SCc1ccc(Br)cc1 | i | 0.88 | 98 | 2 | 93 | -1.2 | 3
6 | CN(C)c1nnnn1-c1ccc(Cl)cc1Cl | i | 1.1 | 106 | -91 | 45 | / | 0
7 | COc1ccc(Nc2nc(C)cc(C)c2C#N)cc1 | i | 0.95 | 77 | 33 | 92 | -1.4 | -7
8 | O=C(NCC1CCCO1)c1cccnc1NCc1ccc(F)cc1 (centres undefined) | i | 1.1 | 104 | / | / | / | -3
9 | CCn1c(SCc2ccccc2Cl)nc2nc3c(cc2c1=O)CCCC3 | i | 0.84 | 114 | / | / | -0.3 | -8
10 | O=C1Nc2ccccc2/C1=N\N1CCOCC1 | i | 0.86 | 101 | / | / | / | /
11 | Cc1ccc(CSCC(=O)Nc2ccc(F)cc2)cc1 | i | 1.1 | 105 | / | / | -0.6 | -4
12 | Cc1ccc(NC(=S)NC(=O)c2ccc(F)cc2)cc1S(=O)(=O)Nc1ccccc1Cl | i | 0.79 | 56 | / | / | -0.8 | 9
13 | N=c1oc2ccccc2cc1-c1nc(-c2ccc(Cl)cc2)cs1 | i | 1.1 | 110 | -41 | 64 | 0.8 | -15
14 | CCn1cc(C(=O)OCC(=O)c2ccc(Cl)cc2)c(=O)c2ccc(C)nc21 | i | 0.91 | 105 | -40 | 106 | / | 2
15 | COc1ccc(OC)c(NC(=O)CCN2CCCC(C)C2)c1 (centres undefined) | i | 1.2 | 97 | / | / | -0.5 | 2
16 | O=C(CSc1nnnn1-c1ccccc1)Nc1nsc(-c2ccc(Cl)cc2)n1 | i | 0.94 | 105 | 19 | 95 | -0.8 | -5
17 | CCn1c(CCNC(=O)c2cccs2)n[nH]c1=S | i | 0.93 | 100 | -23 | 119 | 0.0 | 1
18 | CN(CC(=O)Nc1ccc(F)cc1)C(=O)COc1ncnc2ccccc12 | i | 1.1 | 100 | / | / | / | /
19 | CCOC(=O)C1CCN(C(=O)c2cc(S(=O)(=O)N3CCOCC3)c(Cl)cc2Cl)CC1 | i | 0.97 | 105 | / | / | -0.2 | -7
20 | Cc1c(NC(=O)CSc2ccc(Cl)cc2)cccc1-c1nc2cc(Cl)ccc2o1 | i | 0.93 | 103 | / | / | -1.0 | -3

12 entries from above, ordered by length of the SMILES, high to low:
entry | molecule | HSV augment | HSV augment primary fold | RGS16-Gao HTS | INS promoter inh | INS promoter inh cell count | GALR2 ag | PKD1 inh
19 | CCOC(=O)C1CCN(C(=O)c2cc(S(=O)(=O)N3CCOCC3)c(Cl)cc2Cl)CC1 | i | 0.97 | 105 | / | / | -0.2 | -7
12 | Cc1ccc(NC(=S)NC(=O)c2ccc(F)cc2)cc1S(=O)(=O)Nc1ccccc1Cl | i | 0.79 | 56 | / | / | -0.8 | 9
20 | Cc1c(NC(=O)CSc2ccc(Cl)cc2)cccc1-c1nc2cc(Cl)ccc2o1 | i | 0.93 | 103 | / | / | -1.0 | -3
16 | O=C(CSc1nnnn1-c1ccccc1)Nc1nsc(-c2ccc(Cl)cc2)n1 | i | 0.94 | 105 | 19 | 95 | -0.8 | -5
18 | CN(CC(=O)Nc1ccc(F)cc1)C(=O)COc1ncnc2ccccc12 | i | 1.1 | 100 | / | / | / | /
9 | CCn1c(SCc2ccccc2Cl)nc2nc3c(cc2c1=O)CCCC3 | i | 0.84 | 114 | / | / | -0.3 | -8
13 | N=c1oc2ccccc2cc1-c1nc(-c2ccc(Cl)cc2)cs1 | i | 1.1 | 110 | -41 | 64 | 0.8 | -15
8 | O=C(NCC1CCCO1)c1cccnc1NCc1ccc(F)cc1 (centres undefined) | i | 1.1 | 104 | / | / | / | -3
17 | CCn1c(CCNC(=O)c2cccs2)n[nH]c1=S | i | 0.93 | 100 | -23 | 119 | 0.0 | 1
7 | COc1ccc(Nc2nc(C)cc(C)c2C#N)cc1 | i | 0.95 | 77 | 33 | 92 | -1.4 | -7
5 | CC(C)N=C(NC#N)SCc1ccc(Br)cc1 | i | 0.88 | 98 | 2 | 93 | -1.2 | 3
10 | O=C1Nc2ccccc2/C1=N\N1CCOCC1 | i | 0.86 | 101 | / | / | / | /

Following part.
entry | molecule | HSV augment | HSV augment primary fold | RGS16-Gao HTS | INS promoter inh | INS promoter inh cell count | GALR2 ag | PKD1 inh
21 | CCCCS(=O)(=O)N1CN(S(=O)(=O)CCCC)C2NC(=O)NC21 (centres undefined) | i | 0.99 | 100 | 50 | 103 | -2.3 | -3
22 | CC1Cc2ccccc2N1C(=O)CSc1nnnn1C(C)C (centres undefined) | i | 1 | 96 | -34 | 76 | -0.9 | -7
23 | COc1ccccc1NS(=O)(=O)c1cc(NC(=S)Nc2cc(C)cc(C)c2)ccc1Cl | i | 0.99 | 131 | -53 | 105 | -1.1 | 0
24 | c1ccc(-c2noc(-c3ccc4c(c3)OCO4)n2)cc1 | i | 1 | 107 | 47 | 77 | / | -4
25 | CCC(C)NS(=O)(=O)c1ccc(OCC(=O)N2CCC(C)CC2)cc1 (centres undefined) | i | 0.9 | 113 | 25 | 89 | 0.2 | 2
26 | CSCCC(N=C(NS(=O)(=O)c1ccc(C)cc1)c1ccccc1)C(=O)O (centres undefined) | i | 1.3 | 103 | / | / | / | /
27 | COc1ccccc1-c1nc(C(N)=O)c2[nH]c(=O)n(-c3cccc(C)c3)c2n1 | i | 0.99 | 95 | 27 | 48 | 0.7 | -7
28 | COc1cc(CSc2ncn[nH]2)c(OC)cc1CSc1ncn[nH]1 | i | 0.86 | 100 | 0 | 86 | 0.3 | 0
29 | COc1ccc(N(CC(O)CN2C(=O)NC(C)(C)C2=O)S(=O)(=O)c2ccc(C)cc2)cc1 (centres undefined) | i | 0.95 | 97 | 50 | 121 | -1.6 | -4
30 | CCCCS/C(N)=N/N=C/c1ccccc1O | i | 0.89 | 97 | / | / | -1.3 | 1
31 | O=C(/C=C/c1ccco1)NCCc1ccccc1 | i | 0.98 | 90 | -20 | 129 | / | 2
32 | COc1cccc(OC)c1OCC(O)CN1CCN(c2ccccc2)CC1 (centres undefined) | i | 1 | 96 | / | / | -0.9 | -1
33 | O=C(COc1ccccc1)N/N=C/c1cc2c(cc1[N+](=O)[O-])OCO2 | i | 0.97 | 102 | -500 | 39 | -1.4 | -6
34 | CCOc1ccc(NC(C)C(=O)N/N=C/c2cccs2)cc1 (centres undefined) | i | 0.92 | 99 | / | / | -1.1 | 1
35 | Cc1oc2c(c1C(=O)O)C(=O)c1ccccc1C2=O | i | 1 | 103 | -16 | 113 | / | -3
36 | O=C(COC(=O)CNC(=O)c1ccc(Br)o1)Nc1ccccc1OC(F)F | i | 1 | 96 | / | / | / | -10
37 | N#Cc1nc(COc2cccc(Cl)c2)oc1NCc1ccncc1 | i | 0.97 | 100 | 10 | 136 | -0.6 | -7
38 | Cc1occc1-c1nnc(SCC(=O)c2ccc(Cl)cc2)n1C | i | 0.99 | 114 | 28 | 148 | -0.2 | -13
39 | O=C(CCC1CCCCC1)Nc1c[nH]c(=O)[nH]c1=O | i | 0.94 | 95 | / | / | -0.8 | -1
40 | OCCNC(=S)Nc1ccc2c(c1)OCCO2 | i | 1 | 106 | / | / | / | /
41 | CCN(CC)S(=O)(=O)c1ccc(Cl)c(NC(=O)COC(=O)c2ccc([N+](=O)[O-])o2)c1 | i | 0.94 | 84 | / | / | / | /
42 | COc1cccc(NC(=O)C(c2ccccc2)N2CCN(c3ccccn3)CC2)c1 (centres undefined) | i | 0.88 | 102 | 14 | 97 | / | -2
43 | CC1CCCCN1CCCNC(=O)c1ccc2c(=O)n(CCc3ccccc3)c(=O)[nH]c2c1 (centres undefined) | i | 0.8 | 80 | 0 | 96 | -2.8 | -9
44 | CCOc1ccc2nc(NC(=O)C3=NNC(=O)CC3)sc2c1 | i | 1 | 100 | / | / | / | 0
45 | N#C/C(=C/c1cccs1)c1nc2ccccc2[nH]1 | i | 0.85 | 104 | 75* | 218* | 0.2 | -5
46 | Nc1nc(-c2ccco2)nn1C(=O)c1ccccc1 | i | 1 | 105 | 54 | 48 | -1.0 | 7
47 | CCNC(=S)Nc1cc(OCC)c(N2CCOCC2)cc1OCC | i | 1 | 113 | 8 | 103 | -1.8 | -12
48 | N#CC1=C(N)Oc2cc3c(cc2C1c1ccc(Cl)cc1)OCO3 (centres undefined) | i | 0.64 | 101 | -160 | 79 | -3.0 | -13
49 | CN(C)S(=O)(=O)c1cccc(C(=O)N=C2N=C3C=CC(Cl)=CN3Cc3ccccc32)c1 | i | 0.8 | 100 | / | / | / | /
50 | Cc1cccc(NC(=O)CSc2nnc(NC(=O)CN3CCCCC3)s2)c1 | i | 1.1 | 100 | / | / | -1.7 | -5
51 | Cc1cccc(NC(=O)c2ccc(N(C)C3CCCCC3)c([N+](=O)[O-])c2)n1 | i | 0.85 | 100 | / | / | -2.2 | 4
52 | CC(C)(C)C1CCC(=NNc2ccc(S(N)(=O)=O)cc2[N+](=O)[O-])CC1 (centres undefined) | i | 1 | 119 | -21 | 49 | -0.5 | -3
53 | Cc1ccc2c(=O)[nH]c(Cc3ccccc3C(=O)O)nc2c1 | i | 0.93 | 101 | / | / | / | /
54 | Cc1nc2oc3c(NCC4CCCO4)ncnc3c2c2c1COC(C)(C)C2 (centres undefined) | i | 0.87 | 100 | / | / | -1.5 | 0
55 | Cn1cccc1/C=C1\SC(=S)N(NC(=O)c2ccc(Cl)cc2)C1=O | i | 0.99 | 85 | -24 | 87 | -0.3 | -2
56 | O=C(CN(Cc1ccccc1)C1=NCCS1)c1ccc(Cl)cc1 | i | 1.2 | 146 | / | / | -1.8 | 2
57 | CC(C)NOC(=O)c1ccc(Cl)cc1 | i | 0.98 | 98 | 12 | 105 | / | -2
58 | COc1cc(/C=N/Nc2nc(=O)[nH]nc2C)cc([N+](=O)[O-])c1O | i | 1.2 | 101 | / | / | / | /
59 | O=S(=O)(c1ccc2ccccc2c1)N1CCN(C(=S)Nc2ccc(F)c(Cl)c2)CC1 | i | 0.82 | 100 | 27 | 164 | -1.5 | -5
60 | Cc1cc(-c2ccco2)n(CC(=O)NCCN(C)C)n1 | i | 0.9 | 94 | / | / | -2.4 | -3
61 | Cn1c(=O)c2c(nc(Sc3ncnn3CC(=O)N3CCOCC3)n2C)n(C)c1=O | i | 1 | 95 | / | / | / | /
62 | Cn1cc(CNC(=O)c2sc3cccc(Cl)c3c2Cl)cn1 | i | 0.8 | 83 | 0 | 79 | -1.0 | 0
63 | CCCOC(=O)c1ccc(Oc2cn[nH]c2-c2ccc(OCC(=O)NN)cc2O)cc1 | i | 1.2 | 99 | / | / | / | /
64 | O=C(CCn1c(=O)oc2ccccc21)N1CCN(c2ccccc2F)CC1 | i | 0.92 | 101 | / | / | -1.2 | -4
65 | CSc1nncc(-c2ccccc2)n1 | i | 1 | 103 | 0 | 104 | / | -4
66 | O=C1c2ccccc2C(=O)N1CC1CCCO1 (centres undefined) | i | 1 | 98 | 57 | 111 | -2.5 | -6
67 | CCCCNc1cc(C(=O)O)cc(S(N)(=O)=O)c1Oc1ccccc1 | i | 1 | 108 | 50 | 85 | -0.5 | -24
68 | Cc1ccc(NC(=O)c2ccc3ccccc3n2)cc1S(=O)(=O)N1CCOCC1 | i | 0.96 | 112 | -36 | 38 | / | -9
69 | CCCC(c1nnnn1CS(=O)(=O)c1ccc(C)cc1)N1CCN(c2ccccc2)CC1 (centres undefined) | i | 0.79 | 102 | -10 | 76 | -2.1 | -12
70 | CC(NC(=O)Cn1cnc2c1c(=O)n(C)c(=O)n2C)c1ccccc1 (centres undefined) | / | / | 106 | 22 | 120 | 0.3 | -4
71 | Cc1c(C(=O)NCc2cccnc2)oc2ccc(S(=O)(=O)N3CCCC(C)C3)cc12 (centres undefined) | i | 0.94 | 101 | / | / | -0.9 | 1
72 | COC(=O)c1ccccc1NC(=O)c1cc(-c2ccc(OC)c(OC)c2)on1 | / | / | / | 29 | 118 | -3.0 | -4
73 | Cc1csc2c(NCCCN3CCOCC3)ncnc12 | i | 0.93 | 99 | / | / | / | /
